Screening results deposited in PubChem by National Center for Advancing Translational Sciences (NCATS).
VDR inhibitor – inhibitors of human vitamin D receptor; Potency, µM, for the others: max response, negative = inhibition, actives largely listed as inhibitors; P11473; 400,000 compounds, 0.93% hits; VDR-SRC2-3 peptide fluorescence polarization, 2 h; active = well fitted inhibition curve with a large enough effect; inconclusive = small, poorly fitted or top-dose-only effect, or another doubt; inactive = no such curve, though single readings can be large or run the other way; note: series mostly up to about 120 µM
Target sequence (P11473 whole entry, looked up): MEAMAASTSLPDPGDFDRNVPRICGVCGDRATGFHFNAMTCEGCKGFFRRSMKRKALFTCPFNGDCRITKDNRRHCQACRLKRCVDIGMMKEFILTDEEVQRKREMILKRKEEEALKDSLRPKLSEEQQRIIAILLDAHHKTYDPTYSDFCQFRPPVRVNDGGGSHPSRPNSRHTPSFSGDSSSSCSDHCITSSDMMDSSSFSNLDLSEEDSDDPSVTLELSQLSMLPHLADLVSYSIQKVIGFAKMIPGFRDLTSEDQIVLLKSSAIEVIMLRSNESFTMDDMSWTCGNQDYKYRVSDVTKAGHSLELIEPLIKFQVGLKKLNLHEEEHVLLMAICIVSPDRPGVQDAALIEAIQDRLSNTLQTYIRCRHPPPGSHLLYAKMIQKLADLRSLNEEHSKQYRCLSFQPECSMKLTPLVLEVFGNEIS
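Signal is fluorescence polarization, reporting how far test compounds block the interaction of VDR with the SRC2-3 coregulator peptide after a 2 h room-temperature incubation.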
* marks the source's active call; other numbers are inactive results; ? = inconclusive; & = joins results of further samples; [ ] = another dose, or the depositor's remark. % is set by controls: 0 for no effect and ±100 for the full control effect; potency is the fitted concentration of half-maximal effect. This is a subset; rates above refer to the full screens.

VDR inhibitor,SMILES
11%,CCCCSc1ccc(NC(=O)c2cccnc2)cc1
0%,Cc1occc1C(=O)NC1CCCN(Cc2ccc(Cl)cc2)C1 (centres undefined)
3%,CC(C)(C)NC(=O)Cn1nnc(-c2ccccc2NC(=O)c2cnccn2)n1
0%,C[C@@H]1CN[C@H](CCO)/C1=C\c1ccccc1
-6%,CCOC(=O)c1c(/N=C/c2cc(OC)cc([N+](=O)[O-])c2O)sc(C)c1C
-2%,CC(=O)O[C@]1(C)CC[C@]23CC1C(C)(C)C2CC[C@@H]3C (some centres undefined)
19%,CCc1ccc(CN(Cc2cn[nH]c2-c2ccc(OC)cc2)C(=O)Nc2ccc(Br)cc2)cc1
-11%,COc1ccc(CCNC(=O)CSc2nc(-c3ccc(F)cc3)cc(C(F)(F)F)n2)cc1OC
8%,O=C(COc1ncnc2ccccc12)Nc1ccc(S(=O)(=O)N2CCOCC2)cc1
7%,CCOC(=O)C1CCN(C(=O)CN(C)S(=O)(=O)c2cc(C)ccc2OC)CC1
-11%,Cn1nc(C(F)(F)F)cc1-c1ccc(S(N)(=O)=O)s1
-3%,COc1ccc(S(=O)(=O)c2cn(Cc3ccccc3)c3cc(F)c(F)cc3c2=O)cc1
-2%,CC(O)C1CCC2C3CCC4CC(O)CCC4(C)C3CCC12C (centres undefined)
-5%,Cc1cc2c(cc(C(=O)N3CCC(C(=O)NC4CCCC4)CC3)n2Cc2c(F)cccc2Cl)o1
-9%,CCCCCCCCNS(=O)(=O)CCNC1CC1
-19%,O=C(Nc1cccc(C(F)(F)F)c1)C1CCN(S(=O)(=O)c2cccc3nsnc23)CC1
6%,COc1ccc(C(=O)O/N=C(\N)Cc2ccc(Cl)cc2Cl)cc1OC
-10%,Nc1ncnc2c1nc(N1CCCCC1)n2[C@@H]1O[C@H](CO)[C@@H](O)[C@H]1O
7%,COc1ccc(C(=O)OCc2cc(=O)n3nc(C4CC4)sc3n2)cc1OC
0%,CCN(c1ccc(OC)cc1)S(=O)(=O)c1nnc(NC(=O)c2ccc(C)cc2)s1
27%,Cc1ccc(CN2C(=O)CCC2C(=O)NCCc2ccccc2)cc1 (centres undefined)
-7%,O=C(CSc1nnc(C2COc3ccccc3O2)o1)Nc1ccc(F)cc1Cl (centres undefined)
-9%,COc1cc(C(=O)Nc2nnc(CC(C)(C)C)s2)c([N+](=O)[O-])cc1OC
-12%,O=S(=O)(c1cccc(-c2nc3n(n2)Cc2ccccc2-3)c1)N1CCCCC1
14%,COc1ccccc1NC(=O)CN1CCCCC1
7%,CC(C)Cn1c(N)c(C(=O)COC(=O)c2c(O)c(Cl)cc(Cl)c2Cl)c(=O)n(C)c1=O
13%,Nc1c(C(=O)Nc2ccccc2F)sc2nc3c(cc12)CCCCCC3
-6%,Cc1ccc(CNC(=O)Cn2c(=O)n(-c3ccc(Cl)cc3)c(=O)c3c(C)c(C)sc32)cc1
10%,COc1ccc(N2C(N)=C(C#N)C(c3cc(CN4CCOCC4)cs3)C3=C2CCCC3=O)cc1 (centres undefined)
2%,NC(=O)Cn1c(=O)n(CCc2ccccc2)c(=O)c2c3c(sc21)CCCC3

Given with each value named: entries from further up.
C[C@@H]1CN[C@H](CCO)/C1=C\c1ccccc1
  VDR inhibitor: 0%

CCOC(=O)c1c(/N=C/c2cc(OC)cc([N+](=O)[O-])c2O)sc(C)c1C
  VDR inhibitor: -6%

CC(=O)O[C@]1(C)CC[C@]23CC1C(C)(C)C2CC[C@@H]3C (some centres undefined)
  VDR inhibitor: -2%

CCc1ccc(CN(Cc2cn[nH]c2-c2ccc(OC)cc2)C(=O)Nc2ccc(Br)cc2)cc1
  VDR inhibitor: 19%

More compounds:
VDR inhibitor,SMILES
19%,O=C(O)C1CCCCN1S(=O)(=O)c1ccccc1 (centres undefined)
10%,N#Cc1ccc2ccn(CC(=O)N3CCCc4ccccc43)c2c1
6%,COc1ccc(NC(=O)Cn2cc(C(=O)c3ccncc3)c(=O)c3cc(C)ccc32)cc1Cl
-3%,O=CN1CCN(C(=O)c2ccc3c(c2)OCO3)CC1
?,COc1cccc(/C=N/NC(=O)c2ccc(N3CCCC3=O)cc2)c1
5%,O=c1c(Cl)c(Nc2cccc(Cl)c2)cnn1-c1nc2ccccc2s1
-12%,Cc1[nH]c2ccc(Br)cc2c(=O)c1CN1CCOCC1
11%,COc1ccccc1NC(=O)CSc1oc(-c2cccs2)nc1S(=O)(=O)c1ccc(C)cc1
2%,CCOc1ccc(C(=O)N[C@H](C(=O)Nc2ccccc2OC)C(C)C)cc1
-4%,Cc1ncsc1CCOC(=O)c1ccccc1
?,Cc1cc(O)cc(O)c1C(=O)OC1(C)C(=O)C=C2C=C(/C=C/CO)OC=C2C1=O (centres undefined)
-1%,Cc1ccc(-c2n[nH]c(=S)n2/N=C/c2c(C)nn(-c3ccccc3)c2C)cc1
-11%,COc1ccc(OC)c(NC(=O)Cc2coc3cc(C)cc(C)c23)c1
-5%,COCc1cc(C)nc2sc(C(=O)Nc3ccccc3C)c(N)c12
4%,Cc1nc(Nc2ccccc2F)c2oc3ccccc3c2n1
3%,Cc1ccc(CNC(=O)CSCc2ccccc2)cc1
13%,O=[N+]([O-])c1ccc(Oc2cccc(F)c2)c2ccncc12
?,COc1cc(/C=C(\C#N)C(=O)Nc2cccc(C(=O)O)c2)ccc1OCc1ccc(C)cc1
3%,O=C1CC(N2CCSCC2)C(=O)N1c1ccc(F)cc1 (centres undefined)
7%,CC1(C(=O)NCc2cccnc2)CCC(=O)N1Cc1cccs1 (centres undefined)
15%,CCNC(=O)Cc1ccc(Br)cc1
-15%,CCCOc1ccc(N2C(=O)CC(N(CCOC34CC5CC(CC(C5)C3)C4)C(C)=O)C2=O)cc1 (centres undefined)
13%,CC1CCN(CCCNC(=O)c2n[nH]c(=O)c3ccccc23)CC1
8%,COc1ccccc1Nc1nc(-c2sc(NC(=O)C(C)(C)C)nc2C)cs1
9%,CC1=C(C(=O)Nc2c(C)cc(C)cc2C)C2(CCN(C(C)C)CC2)OC1=O
-1%,CCC(C)Nc1cc(C)c(C#N)c2nc3ccccc3n12 (centres undefined)
-7%,O=C(Nc1cccc(C(=O)N2CCOCC2)c1)c1ncn[nH]1
8%,C/C=N\NC(=O)CNC(=O)CNC(=O)c1ccccc1
0%,O=C(O)COc1ccc(-c2nnn(Cc3ccccc3F)n2)cc1
11%,COc1ccc(CCC(=O)NNC(=O)c2cccs2)cc1
-15%,O=C(CCc1ccccc1)Nc1nc2ccc(S(=O)(=O)N3CCOCC3)cc2s1
12%,COc1ccc(-c2nc3c(C#N)c[nH]n3c2NC2CCCC2)c(OC)c1
-2%,CCn1nnnc1SCC(=O)N1CCOCC1
-5%,O=C1NC(=S)S/C1=C1\Sc2ccccc2N1CCCS(=O)(=O)O
-2%,O=C(Nc1ccccc1)NC1(C(=O)NCc2ccco2)CCCCC1
8%,CCC(=O)N1c2ccccc2CC1C(=O)NCCN1CCN(c2cccc(Cl)c2)CC1 (centres undefined)
7%,O=C(NCc1ccccc1)C(=O)NCC(c1ccc2c(c1)OCO2)N1CCOCC1 (centres undefined)
-13%,COc1ccnc(Oc2ccc(F)cc2)c1C(=O)N/C=N/OCc1cccc(F)c1
79µM*,CC(=O)c1c(C)n(S(=O)(=O)c2ccc(Cl)cc2)c2ccc(NS(=O)(=O)c3ccc(Cl)cc3)cc12
14%,CCn1c(COc2ccc(Cl)cc2)nnc1SCC(=O)Nc1ccc2c(c1)OCCO2
?,COc1ccccc1/C=C/C(=O)NNC(=O)c1cc(C)oc1C
-5%,COc1c(Br)cc(Br)cc1/C=C1/C(=O)N=C(N)N1C
-3%&1%,CCCCN(C)CCNC(=O)CN1C(=O)CSc2ccc(S(=O)(=O)N3CCCCC3)cc21
-2%,CCCS(=O)(=O)Nc1c(C(=O)OC)[nH]c2ccccc12
13%,CCOC(=O)c1cccc(NC(=O)CN2C(=O)c3ccccc3Sc3ncccc32)c1
17%,N=c1c2c(-c3ccccc3)c(-c3ccccc3)n(Cc3ccco3)c2ncn1CCN1CCOCC1
-12%,COc1cccc(CNC(=O)CCCn2nc(C)c3c(C)n(-c4ccccc4)nc3c2=O)c1
-10%,Cc1cccc(NC(=S)NC(=O)CCc2ccccc2)c1
1%,O=C(N/N=C/c1ccccc1F)c1cccc2ccccc12
22%,CCN1CCN(CCNC(=O)c2ccc(CS(=O)(=O)c3c(Cl)cccc3Cl)o2)CC1
1%,COc1ccccc1Nc1nnc(SC(C)C(=O)NC2CC2)s1 (centres undefined)
9%,O=C(Cc1csc(NC(=O)Nc2ccc(Cl)cc2)n1)NCc1cccnc1
10%,Cn1cc(C(=O)c2ccccc2C(=O)O)cc1C(=O)C(Cl)(Cl)Cl
-3%,CC1=C(C(=O)Nc2ccccc2C)C(c2cccs2)n2nc(SCc3cc(C)ccc3C)nc2N1 (centres undefined)
12%,COC(=O)C1C(c2ccccc2)C(C(=O)N2CCN(C)CC2)C1c1ccccc1 (centres undefined)
19%,O=C(OCc1ccc(COC(=O)c2ccccn2)cc1)c1ccccn1
0%,CCCCn1c(O)c(N=Nc2ccccn2)c2ccccc21
-2%,CCn1c(SCC(=O)Nc2cc(C)nn2-c2ccccc2)nnc1-c1cccs1
-18%,O=C(O)c1ccc(C[n+]2c(-c3ccccc3)csc2Nc2ccccc2)cc1
-3%,O=C(NNC(=O)C1COc2ccccc2O1)c1ccccc1 (centres undefined)

The list goes on:
VDR inhibitor,SMILES
-6%,OCc1nc2ccccc2n1CCCOc1ccccc1
14%,Cc1ccc(S(=O)(=O)N2CCc3cc(C(=O)Nc4ccc(Cl)cc4C)ccc32)cc1
-3%,C=CCN1C(=O)C2C(C(=O)NC)C3(C)C=CC2(O3)C1C(=O)NCc1ccc(OC)cc1 (centres undefined)
2%,COc1ccc(CNC(=O)C(c2ccco2)N(Cc2cccs2)C(=O)Cc2cccs2)cc1 (centres undefined)
1%,OCCC1CN(Cc2nc3ccc(F)cc3[nH]2)CCN1C1CCCC1 (centres undefined)
-16%,O=C(c1ccc(CN2CCc3ccccc3C2)cc1)N1CCN(c2ccccc2)CC1
-11%,COc1cccc(NC(=O)CC2S/C(=N\S(=O)(=O)c3ccccc3)N(c3ccccc3)C2=O)c1 (centres undefined)
0%,COc1ccc(-c2cn3nc(SCC(=O)NC4CCCCC4)ccc3n2)cc1
?,O=C(/C=C/c1cccs1)c1cc(Br)ccc1OC(=O)N1CCOCC1
5%,Cc1cc(C(=O)NNC(=O)[C@H](C)NC(=O)c2ccc(Br)cc2)c(C)o1
5%,O=C(O)C1CCC(CN(Cc2cccc(Br)c2)C(=S)Nc2ccccc2F)CC1 (centres undefined)
-15%,O=c1c(N=Nc2ccc(O)cc2)c(-c2ccccc2)[nH]n1-c1ccc([N+](=O)[O-])cc1
-8%,Cc1ccc(-c2nnc(Nc3ccccc3)c3ccccc23)cc1S(=O)(=O)N1CCN(C)CC1
-17%,CCOC(=O)C1=C(Nc2ccccc2)CC(C)(O)C(C(=O)OCC)C1c1ccccc1 (centres undefined)
-1%,CCc1ccc(NCc2cc3ccc(OC)cc3n(CC(=O)Nc3ccc(F)cc3F)c2=O)cc1
1%,Cc1ccc(S(=O)(=O)N(C)CC(=O)N2CCCCCCC2)cc1
-12%,Cc1ccc([N+](=O)[O-])cc1S(=O)(=O)Nc1ccc(O)c(Sc2ncn[nH]2)c1
5%,CC(=O)Oc1ccc(/C=C(\NC(=O)c2ccco2)C(=O)NCc2ccccc2)cc1
-4%,O=C(CSc1ccc2ccccc2n1)NC1CC1
1%&-2%,COc1ccc(S(=O)(=O)c2nnn(-c3cccc(Cl)c3)c2N)cc1
-10%,CCOc1ccc(N(CC(=O)Nc2cc(C)cc(C)c2)S(C)(=O)=O)cc1
-14%,CC(C)(C)CC(=O)Nc1ccc(-c2cn3cccnc3n2)cc1
31%[activator],COc1cc(C)ccc1OCCCON1C(=O)CCC1=O
8%,Cn1cnc([N+](=O)[O-])c1Nc1cccc(O)c1
-6%,OCC[C@H]1C[C@@H](O)[C@H](O)[C@@]2(Cc3ccccc3CO2)O1
2%,Cc1nc2nc(COc3ccccc3)nn2c(C)c1Cl
-15%,Cc1ccc(-c2nn3c(C)nnc3s2)cc1NC(=O)c1ccc(Br)o1
-7%,COC(=O)c1nc2n(n1)C(c1ccc([N+](=O)[O-])cc1)C(C(=O)Nc1ccc(Cl)cc1)=C(C)N2 (centres undefined)
?,Cc1cc(N2CC(C)OC(C)C2)nc2ccccc12 (centres undefined)
-21%,Cc1[nH]c2ccc(C(=O)NC3CCC(C)CC3)cc2c1C (centres undefined)

Fetched one by one from above, 4 records:
VDR inhibitor,SMILES
-10%,CCOc1ccc(N(CC(=O)Nc2cc(C)cc(C)c2)S(C)(=O)=O)cc1
-7%,COC(=O)c1nc2n(n1)C(c1ccc([N+](=O)[O-])cc1)C(C(=O)Nc1ccc(Cl)cc1)=C(C)N2 (centres undefined)
?,O=C(/C=C/c1cccs1)c1cc(Br)ccc1OC(=O)N1CCOCC1
-17%,CCOC(=O)C1=C(Nc2ccccc2)CC(C)(O)C(C(=O)OCC)C1c1ccccc1 (centres undefined)

Molecules shown so far with a CF3 group:
VDR inhibitor,SMILES
-11%,COc1ccc(CCNC(=O)CSc2nc(-c3ccc(F)cc3)cc(C(F)(F)F)n2)cc1OC
-11%,Cn1nc(C(F)(F)F)cc1-c1ccc(S(N)(=O)=O)s1
-19%,O=C(Nc1cccc(C(F)(F)F)c1)C1CCN(S(=O)(=O)c2cccc3nsnc23)CC1

Further records follow.
VDR inhibitor,SMILES
-1%,CCOc1ccc(NS(=O)(=O)c2ccc(NC(=O)c3ccccc3C(=O)O)cc2)cc1
-7%,COC(=O)C1=C(C)N(Cc2ccccc2)C(=NCCc2ccccn2)N[C@H]1c1cccc(C(F)(F)F)c1
-4%,CCOc1ccc(-n2c(SCc3cc(=O)oc4cc(C)ccc34)nnc2-c2cccnc2)cc1
-22%,O=C(NN1C(=O)/C(=C/c2ccc(O)c([N+](=O)[O-])c2)SC1=S)c1ccccc1Cl
10%,O=C(O)c1ccc(-n2cncn2)c([N+](=O)[O-])c1
5%,N/C(=N\OC(=O)CC1CCCCC1)c1ccccn1
5%,CCOC(=O)c1ccc(NC(=S)Nc2ccccc2)cc1
